RecA splice inh: Mtb RecA intein splicing inhibitors, primary screen, biochemical, fluorescence, HTS; cell-free RecA intein splicing; inhibition, %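 (about 9 µM by stock and volumes)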; hit rate 0.75% among 290,000; Protein RecA (Mycobacterium tuberculosis (strain ATCC 25618 / H37Rv)), P9WHJ3; in the data active means inhibition above about 30%; inconclusive means no clear call, values can overlap the other calls;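 further: 0% = vehicle wells and 100% = reference inhibitor control wells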
Target sequence (P9WHJ3 whole entry, looked up, canonical isoform): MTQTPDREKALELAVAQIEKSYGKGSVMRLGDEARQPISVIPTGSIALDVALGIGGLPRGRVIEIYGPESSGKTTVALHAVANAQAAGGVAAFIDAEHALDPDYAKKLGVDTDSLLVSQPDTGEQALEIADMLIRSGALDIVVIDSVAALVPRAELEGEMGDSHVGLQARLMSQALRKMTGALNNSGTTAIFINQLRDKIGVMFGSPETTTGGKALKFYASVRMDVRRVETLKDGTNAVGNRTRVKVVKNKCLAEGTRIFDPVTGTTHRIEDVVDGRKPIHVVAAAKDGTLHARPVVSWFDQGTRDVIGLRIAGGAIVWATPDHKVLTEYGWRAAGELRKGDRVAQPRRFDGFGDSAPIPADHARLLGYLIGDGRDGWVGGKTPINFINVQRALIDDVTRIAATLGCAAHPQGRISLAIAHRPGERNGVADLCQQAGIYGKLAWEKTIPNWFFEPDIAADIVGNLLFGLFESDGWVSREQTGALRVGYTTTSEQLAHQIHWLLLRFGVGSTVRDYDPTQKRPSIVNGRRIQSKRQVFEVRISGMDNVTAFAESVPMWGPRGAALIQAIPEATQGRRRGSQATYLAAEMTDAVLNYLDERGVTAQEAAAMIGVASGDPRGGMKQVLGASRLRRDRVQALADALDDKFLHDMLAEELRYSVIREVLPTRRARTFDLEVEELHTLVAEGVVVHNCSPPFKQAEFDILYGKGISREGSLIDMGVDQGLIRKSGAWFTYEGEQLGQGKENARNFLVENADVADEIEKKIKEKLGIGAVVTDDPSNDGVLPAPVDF
Mtb growth: M. tuberculosis H37Rv growth inhibitors, H37Rv strain (AID 1626); M. tuberculosis H37Rv growth inhibition; higher % means a stronger effect; inhibition, % at 10 µM, or IC50 in µM where a hit was titrated; hit rate 0.95% among 220,000;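 active means confirmed in a dose series; inconclusive means inhibition above 80% but not taken into the dose series; inactive means below 80% or under 30% at every dose of the series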;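 further: bacteria incubated seven days before Alamar blue readout; 0% = bacteria only wells and 100% = bacteria with antibiotic wells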
Arbovirus inh: antivirals against arbovirus infection, primary screen, cell-based, full library, 10K replicate subset. arbovirus infection cell-based antiviral screen. inhibition, % at 10 µM. hit rate 0.37% among 200,000;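 active means inhibition from about 30%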;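 further: bluetongue infection of BSR cells; cell survival read as ATP light after 72 h; 0% = infected wells without compound and 100% = uninfected wells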
YopH PTP inh: YopH tyrosine phosphatase inhibitors, primary screen, biochemical, fluorescence Ex485/Em525; hit rate 0.16% among 140,000; AID 898, 2007; inhibition, %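 (about 10 µM by stock and volumes)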;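 active means inhibition of 50% or more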;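 further: controls were vehicle for no effect and minimum signal wells for full effect; inactives centre near -20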
Mtb bLac sens: beta-lactam sensitization of Mtb H37Rv, H37Rv; M. tuberculosis H37Rv growth with meropenem, percent inhibition; hits of this screen are not shown here; inhibition, % at 25 µM; hit rate 0.27% among 330,000; AID 434955, 2010;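 active means about 74% or more and at least 40 points above the plate without the antibiotic, then above 30% in a dose series; inconclusive means first-round hits that could not be retested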;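 further: growth measured after seven days incubation then overnight dye step; 0% = bacteria only wells and 100% = bacteria with antibiotic; twin plates without the antibiotic show which effects depend on it; some results filed as inactive read as strong as hits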
Arbovirus inh repeat: recorded beside Arbovirus inh, whose call it bears; inhibition, %; measured here: 10K subset replicate screen; many hits read low in the repeat;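 first of two repeat runs on a subset; 0% = infected and 100% = uninfected wells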
* marks the source's active call; other numbers are inactive results; ? = inconclusive; . = no result given. Some of the compounds tested; the hit share may differ from the screen's.

SMILES	RecA splice inh	Mtb growth	Arbovirus inh	YopH PTP inh	Mtb bLac sens	others
Cc1cc(NS(=O)(=O)c2ccc(NC(=O)CCCOc3ccc(Cl)cc3)cc2)no1	3.1	-8.0%	19.3	-34.5	88.8
CC(C(=O)NC(C)(C)C)N(C(=O)CS(=O)CC(=O)Nc1ccc(F)cc1)C1CCCC1 (centres undefined)	0.1	.	.	.	-5.3
COc1ccc(/C=C(\NC(=O)c2cccs2)C(=O)Nc2cccc3ccccc23)cc1OC	0.9	5.4%	-10.6	14.4	3.3
CC(CCc1ccccc1)NC(=O)CN1CCc2ccccc2C1 (centres undefined)	-0.7	6.5%	11.5	.	4.0
COc1ccc(C2C(C(C)=O)=C(O)C(=O)N2CCc2ccccc2)c(OC)c1 (centres undefined)	-2.1	-10.1%	-6.0	-30.0	-2.7
O=C1OC(c2ccc(O)cc2)(c2ccc(O)cc2)c2ccccc21	7.7	-5.2%	-10.8	-38.5	-1.0
O=C1C2C(C(=O)N1c1ccccc1)N1CCCN1C2c1ccccc1 (centres undefined)	-1.8	-4.1%	0.5	.	0.9
COc1ccc(OC)c(C2CC(=O)Nc3c2c(=O)[nH]c2ncnn32)c1 (centres undefined)	0.3	-6.7%	-1.6	.	1.4
O=C1CC(N2CCN(c3ccc(Cl)cc3)CC2)C(=O)N1c1ccc(F)cc1 (centres undefined)	1.6	.	.	.	-7.0
CC(C)CCNC(=O)NC(=O)COc1c(F)c(F)cc(F)c1F	1.6	2.6%	-1.9	-3.4	-10.7
O=C(NCc1ccc2c(c1)OCO2)c1ccccc1Cl	-2.0	.	.	.	3.6
OCCNCCCOc1ccc(Cl)cc1Br	1.9	-5.3%	-32.4	-51.3	-0.5
Cc1cc(C)cc(N(C(C)C(=O)N2CCOCC2)S(C)(=O)=O)c1 (centres undefined)	1.3	0.3%	-0.3	.	-9.3
O=C(CC(c1ccccc1)(c1ccccc1)c1ccccc1)N[C@@H](Cc1ccccc1)C(=O)O	6.9	-3.9%	10.2	.	-4.0
O=C(N/N=C\c1ccccn1)C1c2ccccc2Oc2ccccc21	3.3	-10.2%	-2.3	.	1.2
O=C(Cn1ncc2ccccc21)N1CCN(c2cccc(C(F)(F)F)c2)CC1	-0.8	-9.3%	14.9	-0.9	6.0
CCc1nc2nc(C)c(NS(=O)(=O)c3cccs3)c(=O)n2[nH]1	1.3	.	.	.	5.1
CC(Oc1cccc(Cl)c1)C(=O)N1CCCN(C)CC1 (centres undefined)	0.4	.	.	.	0.2
CC(C)NC(=O)CSc1nnc(COc2ccccc2Cl)o1	-4.4	0.0%	-2.8	3.2	33.5
COCCN(C(=O)COC(=O)c1cc(C)oc1C)c1c(N)n(Cc2ccccc2)c(=O)[nH]c1=O	-2.7	.	.	.	-3.3
COc1ccccc1/C=C(/C#N)C(=O)O	1.0	-6.5%	.	.	7.0
Cc1c(C(=O)N(C)c2ccc(Cl)cc2)cnn1-c1ccccc1	0.6	.	.	.	-9.6
O=C(CSc1nnc(-c2ccc(F)cc2)c2ccccc12)Nc1ccccc1Cl	6.0	-10.1%	14.7	-7.1	5.8
O=C(Cc1ccc([N+](=O)[O-])cc1)NNC(=O)c1cccs1	-1.4	.	.	.	-0.1
O=C(Cn1nc(Cc2ccncc2)c2ccccc2c1=O)N1CCc2ccccc2C1	.	.	-0.9	-16.6	-1.7	Arbovirus inh repeat=0.7
NS(=O)(=O)c1ccc(Nc2ccc([N+](=O)[O-])c3nonc23)cc1	14.3	-4.8%	.	.	9.8
CC(=NCC1CCNCC1)C1=C(O)CC(C)(C)CC1=O	0.6	-2.6%	1.3	-11.3	-8.4	Arbovirus inh repeat=7.2
COc1cccc(/C=C2\SC(=S)N(CCC(=O)NCCc3ccc(O)cc3)C2=O)c1	12.4	.	.	.	53.4
CC(NC(=O)CSc1ccccc1C(=O)O)C1CC2CCC1C2 (centres undefined)	0.2	-1.6%	3.1	.	-1.8
Cc1nc2ccccc2cc1C(=O)N/N=C/c1cccs1	3.1	-4.5%	-4.0	-0.6	-1.3
CCN(CC)C(=O)COc1ccc2c3c(c(=O)oc2c1C)CCCC3	0.0	.	.	.	99.2
Cc1ccccc1NC(=O)CSc1nc2ccccc2o1	-1.1	3.1%	0.3	15.7	1.9
COc1ccc(NC(=O)c2[nH]c(C)c(C(C)=O)c2C)cc1S(=O)(=O)N1CCOCC1	-2.3	5.0%	-14.2	-23.8	-6.6
CC(C)c1cc(C(=O)NCCc2ccccc2)no1	0.4	8.8%	-2.0	.	0.8
O=C(O)Cc1ccc(Nc2cnn(C34CC5CC(CC(CC(=O)O)(C5)C3)C4)c(=O)c2Cl)cc1	4.5	-11.6%	.	.	-12.8
CN(C)C(=O)c1cc(F)ccc1Sc1cc(Cl)ccc1Cl	2.6	6.9%	-5.1	-19.3	3.0
Cc1ccc([N+](=O)[O-])c(C(=O)N/N=C/c2cccnc2)c1	2.7	-5.3%	.	.	-1.2
COc1cc2c(cc1OC)CN(C(=O)c1ccc(-c3ccccc3)cc1)CC2	2.0	.	.	.	57.3
COC(=O)[C@H]1C2CCC(C(=O)OC)(CC2)[C@H]1C(=O)OC	-0.2	-0.8%	7.3	-46.6	-4.2
CCN(CC(=O)NC1CC1)S(=O)(=O)c1ccccc1	-4.3	.	.	.	-5.6

Compounds listed so far containing an aryl methoxy group:
SMILES	RecA splice inh	Mtb growth	Arbovirus inh	YopH PTP inh	Mtb bLac sens	others
COc1ccc(/C=C(\NC(=O)c2cccs2)C(=O)Nc2cccc3ccccc23)cc1OC	0.9	5.4%	-10.6	14.4	3.3
COc1ccc(C2C(C(C)=O)=C(O)C(=O)N2CCc2ccccc2)c(OC)c1 (centres undefined)	-2.1	-10.1%	-6.0	-30.0	-2.7
COc1ccc(OC)c(C2CC(=O)Nc3c2c(=O)[nH]c2ncnn32)c1 (centres undefined)	0.3	-6.7%	-1.6	.	1.4
COc1ccccc1/C=C(/C#N)C(=O)O	1.0	-6.5%	.	.	7.0
COc1cccc(/C=C2\SC(=S)N(CCC(=O)NCCc3ccc(O)cc3)C2=O)c1	12.4	.	.	.	53.4
COc1ccc(NC(=O)c2[nH]c(C)c(C(C)=O)c2C)cc1S(=O)(=O)N1CCOCC1	-2.3	5.0%	-14.2	-23.8	-6.6
COc1cc2c(cc1OC)CN(C(=O)c1ccc(-c3ccccc3)cc1)CC2	2.0	.	.	.	57.3

Additional structures
SMILES	RecA splice inh	Mtb growth	Arbovirus inh	YopH PTP inh	Mtb bLac sens	others
O=C1CC(N2CCN(S(=O)(=O)c3ccccc3)CC2)C(=O)N1c1ccccc1 (centres undefined)	-0.3	-1.6%	.	.	-0.1
Cc1oc(-c2cc(F)ccc2F)nc1CN1CCC(C(=O)N2CCOCC2)CC1	-2.2	.	.	.	-1.8
Cc1ccc(C(=O)NNC(=O)Cc2nc3nc(C)cc(C)n3n2)cc1	-1.4	.	.	.	-0.6
O=[N+]([O-])c1ccccc1S(=O)(=O)Nc1cccc2cccnc12	-2.8	.	.	.	56.5
Cn1ncc(Cl)c1C(=O)N1CCN(c2ccc(Cl)c(Cl)c2)CC1	9.0	.	.	.	0.7
O=C(Nc1ccccc1)NC1CS(=O)(=O)CC1O (centres undefined)	4.4	-12.2%	9.5	-40.0	-23.8
O=C(NCc1cccc(F)c1)c1ccc2nc(N3CCOCC3)sc2c1	-0.2	.	.	.	0.1
COc1ccc(C)cc1NC(=O)CN1C(=O)c2ccccc2S1(=O)=O	.	-15.4%	16.6	-1.5	5.9	Arbovirus inh repeat=-0.7
CCOC(=O)C1(Cc2ccccc2C)CCCN(Cc2cn(C)nc2C)C1 (centres undefined)	1.2	0.7%	4.2	.	2.1
COCCCNCCCOc1ccc(Cl)cc1Br	0.9	-0.2%	-20.1	-49.7	-1.4
CN1CCN(NC(=O)Nc2cccc(F)c2)CC1	3.3	.	.	.	1.5
CCCCN1C(=O)CCC(C(=O)O)C1c1ccccc1 (centres undefined)	-8.5	-7.6%	3.5	-1.5	3.1
COc1cc2c(OC(C)=O)c3c(c(-c4ccc5c(c4)OCO5)c2cc1OC)C(=O)OC3	-2.5	-4.7%	-16.8	.	-0.5
CC(C)(C)N(CC(=O)NC1CCCCC1)C(=O)CS(=O)CC(=O)Nc1ccc(F)cc1 (centres undefined)	-0.2	.	.	.	-1.2
Cc1nc(CS(=O)(=O)c2ccc(Cl)cc2)sc1C(=O)O	-2.3	-7.0%	.	.	-0.6
COc1ccc(NS(=O)(=O)c2cc(NC(=O)/C=C/c3cc(OC)ccc3OC)ccc2N2CCCCC2)cc1	-7.0	1.6%	-4.3	-25.4	-2.6
CCCCC1=CC2=C(c3ccco3)C(=O)C(C)(OC(=O)c3ccc(OC)cc3)C(=O)C2=CN1Cc1ccco1 (centres undefined)	-0.2	-10.6%	.	.	-10.3
CC1(C)CNC(=O)c2sc(NC(=O)CN3CCOCC3)nc2C1	2.3	2.5%	6.8	-35.8	-0.6
Cc1nnc(C)n1/N=C/c1cc2ccccc2nc1Cl	-1.0	3.8%	2.1	.	-7.4
O=C(Nc1ccc(Cl)cc1)N(Cc1cccnc1)Cc1ccco1	1.2	-7.4%	1.4	-5.7	0.0
O=C(CSc1nc(N2CCOCC2)nc(N2CCOCC2)n1)Nc1ccc(Cl)cc1Cl	4.2	.	.	.	-5.4
Cc1ccc(C(=O)Nc2nc(C(C)(C)C)cs2)s1	3.1	-0.4%	-3.1	-18.7	74.7
O=C(Nc1cc(Cl)cc(Cl)c1)C(NCCCO)c1ccccc1 (centres undefined)	3.6	9.7%	-1.9	.	4.7
O=C(CCc1ccccc1)NCC(=O)N/N=C/c1ccc2c(c1)OCO2	0.6	3.0%	-22.4	-11.1	3.6
O=C(Nc1cccnc1Cl)c1cc(-c2ccccc2O)on1	-1.0	.	.	.	6.5
CCCCn1c(N)c(N(CC)C(=O)c2cc(S(=O)(=O)N3CCN(CC)CC3)ccc2Cl)c(=O)[nH]c1=O	-6.6	.	.	.	-13.0
Cc1ccc(CSc2nnc(CS(=O)Cc3ccc(Cl)cc3Cl)n2C)cc1 (centres undefined)	.	3.1%	2.9	2.9	2.1
CC1(c2nnc(-c3cccc(Cl)c3)o2)CC(c2ccc(Br)cc2)=NO1 (centres undefined)	5.0	-9.6%	.	.	6.1
CCOCCCNC(=S)N1CCCN(c2nc3cc(C)cc(C)c3cc2C#N)CC1	-14.4	-1.9%	6.4	.	-5.3
Brc1ccc(-c2csc(/N=C/N3CCOCC3)n2)cc1	1.3	?	-2.7	-95.7	-1.5
O=C(N[C@@H](Cc1ccccc1)C(=O)OCc1ccccc1)c1nc[nH]c1C(=O)NC1CCNCC1	3.1	.	.	.	-0.7
C=CCNC(=S)NNC(=O)C(CCC(C)C)CC(C)(C)O (centres undefined)	-0.5	-12.5%	-2.0	-6.6	-5.9
Cc1cc(-n2c(C)cc(C(=O)CN3C(=O)NC4(CCCCC4)C3=O)c2C)no1	-2.5	-6.0%	-9.4	-39.8	1.7
CCCCc1ccc(NC(=O)CN2C(=O)C3CCCCC3C2=O)cc1 (centres undefined)	-7.6	.	.	.	-2.0
Cc1cccnc1NC(=O)c1ccc(OCc2c(C)noc2C)cc1	-0.5	.	.	.	-4.1
CC(C)CC1(C(=O)NCc2cc(F)cc(C(F)(F)F)c2)C=CCN1C(=O)c1ccccc1 (centres undefined)	4.4	-9.1%	-1.0	-24.2	-1.6
COc1ccc2oc(C(=O)NCCC(C)C)c(C)c2c1	0.1	3.4%	-0.8	.	15.4
Cc1ccc(CNc2oc(C)nc2C#N)cc1	1.5	9.9%	0.7	-40.4	-6.2
CCc1nc2ccccc2c(=O)n1NCCc1ccccc1	2.1	9.8%	2.2	-10.6	2.5
CCOC(=O)CSc1nnc(CNC(=O)c2ccc([N+](=O)[O-])cc2)n1C	3.0	-2.0%	0.2	.	-5.1
COC(=O)[C@@H](NC(=O)Nc1ccc(S(N)(=O)=O)cc1)C(C)C	-5.0	-0.6%	2.1	-21.7	0.9
CC(C)Cc1nnc(NC(=O)C2CSC3(C)CCC(=O)N23)s1 (centres undefined)	0.4	.	.	.	-2.0
CC1CCc2c(C(=O)NCc3cccnc3)csc2C1 (centres undefined)	4.6	2.4%	-2.4	-22.2	3.3
CCOC(=O)CNC(=O)COc1coc(CN2CCN(c3ccccc3)CC2)cc1=O	-6.4	.	.	.	-3.0
CCOC(=O)c1c(-c2ccc(C)cc2)csc1/N=C/N(C)C	1.2	19.4%	9.5	.	-1.3
CCOC(=O)c1ccc(-n2c(N)c(C(=O)NCC3CCCO3)sc2=S)cc1 (centres undefined)	-1.8	6.9%	4.3	13.0	-2.4
O=C(Nc1ccc(Br)cc1Cl)Nn1cnnc1	-0.8	-8.1%	-0.4	-13.7	-3.4

Source: PubChem BioAssay
